Screens from PubChem BioAssay.
HSD17B inhib: qHTS Assay for Inhibitors of HSD17B4, hydroxysteroid (17-beta) dehydrogenase 4 | 3-hydroxyacyl-CoA dehydrogenase type-2 (Homo sapiens), Q99714 | recombinant HSD17B10, NADH fluorescence kinetic; many of its hits are not listed in these tables | Potency, µM (top dose mostly 57.1 µM), for inactives: at the top dose activity change, negative = inhibition, usual class: inhibitors | actives 7.6% (n = 75,000); active = well fitted inhibition curve with a large enough effect; inconclusive = small, poorly fitted or top-dose-only effect; inactive = no such curve, though single readings can be large or run the other way;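 also: the protocol describes HADH2 (HSD17B10) and not the HSD17B4 of the title; nearly all actives have a fitted effect of over 70% in size; most hits overshoot -100% by far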
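Activity followed as NADH fluorescence increase (ex 360, em 450 nm) every 30 seconds for 4 min, using final 90 uM beta-hydroxybutyryl CoA and 1 mM NAD+. Recombinant His-tagged enzyme, 20 nM, pH 9.0 Tris buffer, 15 min compound preincubation.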
Active calls of the source: *; ? = inconclusive; & = joins results of further samples; [ ] = remark or other dose. % is scaled to controls: 0 for no effect and ±100 for the full control effect; potency is read from the fitted curve at half-maximal effect. A portion of the library, so the mix of outcomes need not match the whole.

The opening 6 compounds as a preview:
SMILES	HSD17B inhib
Cn1c(=O)c2c(SCC(=O)NCC3CCCO3)nc(-c3cccs3)nc2n(C)c1=O (stereo unspecified)	?
O=C(CCN1CCCCC1)c1ccc2c(c1)OCCO2	-18.7%
COC(=O)c1ccc(CSc2ccc3nnc(-c4ccccn4)n3n2)o1	6.0%
Fc1ccc2[nH]c3c(N4CCSCC4)ncnc3c2c1	25.1µM*
O=C(NC1CC2CCC(C1)N2Cc1nnnn1Cc1ccco1)NC12CC3CC(CC(C3)C1)C2 (stereo unspecified)	5.2%
O=C(OCCNC(=O)c1cc2ccccc2oc1=O)c1cccnc1	?

Main list, from the first entry:
SMILES	HSD17B inhib
Cn1c(=O)c2c(SCC(=O)NCC3CCCO3)nc(-c3cccs3)nc2n(C)c1=O (stereo unspecified)	?
O=C(CCN1CCCCC1)c1ccc2c(c1)OCCO2	-18.7%
COC(=O)c1ccc(CSc2ccc3nnc(-c4ccccn4)n3n2)o1	6.0%
Fc1ccc2[nH]c3c(N4CCSCC4)ncnc3c2c1	25.1µM*
O=C(NC1CC2CCC(C1)N2Cc1nnnn1Cc1ccco1)NC12CC3CC(CC(C3)C1)C2 (stereo unspecified)	5.2%
O=C(OCCNC(=O)c1cc2ccccc2oc1=O)c1cccnc1	?
Cc1ccc(N(C(C)C(=O)Nc2ccccc2C(=O)N2CCOCC2)S(C)(=O)=O)cc1C (stereo unspecified)	9.6%
O=S(=O)(NCCSc1nc2ccccc2o1)c1ccccc1	3.5%
CCC(=O)N=C1SC2CS(=O)(=O)CC2N1c1cccc(OC)c1 (stereo unspecified)	-2.5%
CCOc1ccc(N(CC(N)=O)S(=O)(=O)c2ccc(F)cc2)cc1	7.9%
CC(=O)Nc1cccc(Oc2ccc3c(c2)C(=O)N(CCC(=O)O)C3=O)c1	?
Cc1cccc(NC(=O)N2CCC(c3nc4ccccc4o3)CC2)c1	0.3%
COc1ccc2cc(CN(Cc3cccnc3)Cc3nnnn3Cc3ccccc3)c(=O)[nH]c2c1	-14.0%
COc1ccc(CCNC(=O)c2nnn(CC(=O)Nc3ccccc3C)c2N)cc1OC	-7.8%
CC(C)(C)C(=O)Oc1cc(N)n(S(=O)(=O)c2ccccc2)n1	-7.2%
CCCNC(=O)N1N=C(c2ccc(N)cc2)c2cc3c(cc2[C@H]1C)OCO3	?
CC1(c2ccc(Cl)cc2)NC(=O)N(CC(=O)NC(=O)NCc2ccco2)C1=O (stereo unspecified)	-6.0%
O=C(Nc1ccc2c(c1)Cc1ccccc1-2)[C@@H]1[C@H](C(=O)O)[C@]2(Cl)C(Cl)=C(Cl)[C@@]1(Cl)C2(Cl)Cl	-25.8%[11.4 µM]
CCOC(=O)N1CCC(NC(=O)CSc2cc(=O)n(C)c3ccccc23)CC1	?
Cc1cc(C(=O)N[C@H](c2ccccc2)[C@@]2(C)C[C@@H]2[C@@H](C)C(=O)Nc2ccc3ccccc3c2)n(C)n1	23.1%
O[C@@H](c1cc(-c2ccccc2)nc2c1ccc1ccccc12)[C@@H]1CCCCN1	-2.8%[11.4 µM]
COc1ccc(N(CC(=O)Nc2cc(C)on2)S(=O)(=O)c2cc(C)ccc2C)cc1	-2.5%
c1ccc(CNc2c3c(nc4ncnn24)CCCC3)nc1	-0.8%
CCC1=C2CC[C@H]3C(=O)NC(=O)[C@H]3[C@H]2[C@@]2(Cc3ccccc3)C(=NCC3CC3)OC(=O)N2C1=O	-3.1%
CC1(C)CC(=O)C2=C(C1)OC(N)=C(C#N)C2C#Cc1ccccc1 (stereo unspecified)	-14.1%
O=C1NC(=O)C(CC(=O)N(c2ccccc2)C2(C(=O)NC3CCCC3)CCCCC2)N1 (stereo unspecified)	-1.4%
O=C(CN(c1ccc2c(c1)OCCO2)S(=O)(=O)c1ccccc1)NCc1ccco1	-4.8%
Cc1cc(NC(=O)C2CCC2)n(-c2ccccn2)n1	2.8%
Cc1ccc(-n2cnnn2)c(S(=O)(=O)N2CCOCC2)c1	12.9%
COC(=O)CSc1nnc(-c2ccccn2)n1Cc1ccco1	2.2%
Cc1ccc(-n2nc3c(c2NC(=O)c2ccc(Br)o2)CSC3)c(C)c1	?
COc1cccc(C2NC(C(=O)O)CCC2C)c1 (stereo unspecified)	-2.2%[11.4 µM]
COc1ccc(NC(=O)[C@H](CCS(C)(=O)=O)N2Cc3ccccc3C2=O)c(OC)c1	5.6%
CCCCC(c1nnnn1CC1CCCO1)N1CCN(c2cccc(C)c2C)CC1 (stereo unspecified)	-6.6%
COC(=O)c1c(C(=O)OC)n(CCCN)c2ccc(C)cc12	31.6µM*
Cc1cc(C)c2cc(CN(Cc3ccc4c(c3)OCO4)Cc3nnnn3Cc3ccco3)c(=O)[nH]c2c1	12.6µM*
CC1Cc2cc(/C(O)=C3\C(=O)C(=O)N(CCN4CCOCC4)C3c3ccccc3F)ccc2O1 (stereo unspecified)	4.2%
COc1ccc(COC(=O)c2nc3nc(C)cc(C)n3n2)cc1F	-4.0%
Cc1ccc2nsnc2c1S(=O)(=O)N1CCN(Cc2ccc3c(c2)OCO3)CC1	-11.1%
COC(=O)C1(C)Nc2ccccc2C(=O)N1c1ccccc1OC (stereo unspecified)	31.6µM*
CCOC(=O)C1C(=O)C=C(c2ccc(OC)cc2)CC1c1ccco1 (stereo unspecified)	20µM*
Brc1cccc(-c2nnc(SCc3nc4ccccc4[nH]3)o2)c1	-2.3%
Cc1nn(-c2ccccc2)c2sc(C(=O)OCn3nnc4ccccc4c3=O)cc12	10.3%
CCn1c(SCc2nc(-c3cccs3)no2)nnc1-c1c[nH]c2ccccc12	2.7%
Nc1ccc(-c2nc3ccccc3[nH]2)cc1	31.6µM*
CCn1c(=O)cc(SCC(=O)Nc2ccc3c(c2)OCCO3)c2ccccc21	-22.1%
COC(=O)[C@@H]1C[C@H]2CC[C@H](O)C[C@H]2N1Cc1ccc(C(C)(C)C)cc1	0.3%
Cc1c(N)cccc1[N+](=O)[O-]	5.1%
CCN(CCNC(=O)c1cc(C)nn1-c1ccccc1)c1ccccc1	-5.1%
Cc1noc(C)c1S(=O)(=O)N1CCC2(CC1)OCCO2	-14.9%

The list goes on:
SMILES	HSD17B inhib
CC(NC(=O)NC12CC3CC(CC(C3)C1)C2)C1CCCO1 (stereo unspecified)	5.9%
COc1ccccc1CNC(=O)CCS(=O)(=O)c1ccc2c(c1)CCCN2C(C)=O	-3.3%
Cc1ccc2cccc(S(=O)(=O)N3CCN(c4ccccc4F)CC3)c2n1	5.0%
CC(c1ccco1)N(Cc1ccco1)C(=O)Nc1ccccc1 (stereo unspecified)	-0.1%
C=Cc1cccc(NC(=O)COc2ccccc2)c1	-5.9%
Cc1nc2ccc(S(=O)(=O)NC(CC(C)C)C(=O)O)cc2s1 (stereo unspecified)	7.4%
COc1nc(OCCNC(=O)Nc2ccccc2)nc(N(C)C)n1	1.5%
Fc1cccc(CSc2ncnc3c2oc2ccccc23)c1	1.6%
COc1cccc(NC(=O)N2CCN(c3cccc(C)c3)C(C)C2)c1 (stereo unspecified)	-3.7%
COc1ccc(F)cc1S(=O)(=O)Nc1ccc2c(c1)OCO2	-14.2%

5 compounds already listed, arranged by length of the SMILES, ascending:
SMILES	HSD17B inhib
C=Cc1cccc(NC(=O)COc2ccccc2)c1	-5.9%
Fc1cccc(CSc2ncnc3c2oc2ccccc23)c1	1.6%
CC(NC(=O)NC12CC3CC(CC(C3)C1)C2)C1CCCO1 (stereo unspecified)	5.9%
Cc1ccc2cccc(S(=O)(=O)N3CCN(c4ccccc4F)CC3)c2n1	5.0%
COc1ccccc1CNC(=O)CCS(=O)(=O)c1ccc2c(c1)CCCN2C(C)=O	-3.3%

Next results follow.
SMILES	HSD17B inhib
CC(=O)Nc1nc2ccccc2n1CCOc1ccccc1Cl	-8.7%
O=C(c1ccc(Br)s1)N1CCN(c2ncccn2)CC1	?
CC1=CCC2C(=O)N(c3ccc(C)c(Br)c3)C(=O)C2C1 (stereo unspecified)	0.1%
Cc1cc(-c2nnc3n2N=C(C(C)(C)C)CS3)n[nH]1	8.1%
O=C(CCN1C(=O)CSC1=O)Nc1ccccc1	5.0%
Cc1sc2nc(SCC(=O)N(C)C)[nH]c(=O)c2c1C	1.1%
Cc1ccc2cc3cc(C(=O)NCc4ccc5c(c4)OCO5)oc3nc2c1	-4.5%
Cc1ccc2cc(C(c3nnnn3Cc3ccccc3)N3CCN(c4ccccc4)CC3)c(=O)[nH]c2c1 (stereo unspecified)	-3.1%
COc1cccc(Cn2c(-c3cccs3)noc2=O)c1	-3.6%
COc1cc(NS(=O)(=O)c2ccccc2)ccc1-n1nc(C)cc1C	5.6%
N=C(N)SCCc1cnc[nH]1	2.3%&4.6%
COCC(=O)NC(c1ccccc1)c1ccccc1	10.5%
C=C1C(=O)O[C@@H]2C3OC3(C)CC/C=C(\C)CC[C@@H]12 (stereo partly specified)	-12.7%
CCOc1ccc(NS(=O)(=O)c2ccc3[nH]cc(C(=O)NCC4CCCO4)c(=O)c3c2)cc1 (stereo unspecified)	?
CC(=O)c1c(C)[nH]c(C(=O)N2c3ccccc3CC2C)c1C (stereo unspecified)	-5.6%
COc1ccc(C2(O)CCN(Cc3nnnn3Cc3ccc(C)cc3)CC2)cc1	0.6%
COc1ccc(NC(=O)CCNS(=O)(=O)c2ccc3c(c2)c(=O)n(C)c(=O)n3C)cc1	-6.4%
c1cc2c3c(cccc3c1)C(N1CCCCC1)=N2	-25.8%
CC1Cc2ccccc2N1C(=O)c1cnsn1 (stereo unspecified)	-4.8%
CC(C)C[C@H](NC(=O)NC(C)C)C(=O)O	9.1%
CC1(C)CC(C)(O)P(=O)(c2ccccc2)O1 (stereo unspecified)	-8.5%
O=C(CN1CCC(n2nnc3cc(C(F)(F)F)ccc32)CC1)NCc1cccs1	-4.8%
CN(C)/C=N/c1cc(=O)n(Cc2ccccc2)c(=O)n1C	13.2%
Cc1cc2nc(-c3cccnc3SCC(=O)NCc3ccco3)[nH]c2cc1C	31.6µM*
COc1ccc(CCNC(=O)C2CCN(S(=O)(=O)c3cc(OC)ccc3OC)CC2)cc1	9.3%
CCOc1ccc(Nc2cc(C)nc3nc(C)nn23)cc1	4.7%
Cc1nn(C)c(C)c1S(=O)(=O)N1CCCC(C(=O)NCC2COc3ccccc3O2)C1 (stereo unspecified)	-4.0%
COc1ccc(-c2csc(N(CC3CCCO3)C(=O)c3cccs3)n2)cc1 (stereo unspecified)	-5.7%
CC(C)Oc1c(Cl)cc(CNC(C)(C)CO)cc1Cl	4.4%
O=C(NC1CCCCCC1)C1CCN(C(=O)Cc2ccccc2)CC1	6.7%
CCOC(=O)c1cc(NC(=O)N2CCCc3ccccc32)c(C)nc1C	-2.7%
CCC1(C)Cc2c(C#N)c(N)n(N)c(=S)c2CO1 (stereo unspecified)	4.3%
C=CCNC(=O)CCCCCNS(=O)(=O)c1ccc(OC)cc1	3.4%
CCc1cccc(NC(=O)c2ccc(NS(=O)(=O)c3c(C)noc3C)cc2)c1	-10.6%
COc1ccc2c(c1)c(C(=O)OCCN(C)C)c(C)n2C	-0.7%
CCOC(=O)C1C(=O)NC(N2CCCCC2)=NC1c1ccco1 (stereo unspecified)	-0.6%
Cc1cccnc1NCC(O)COc1ccccc1 (stereo unspecified)	?
COc1cc(OC)cc(C(=O)Nn2c(C)nc3ccccc3c2=O)c1	2.5%
CC(C)COC(=O)NCCOC(=O)Nc1cccc(Cl)c1	10.3%
O=C(OCC(=O)N1c2ccccc2Sc2ccccc21)C1CC(=O)N(Cc2ccco2)C1 (stereo unspecified)	-0.7%
COc1ccc(-c2nc3nc(C)cc(C)n3n2)cc1	3.16µM*
N#CC1=C(Nc2ccc(Br)cc2)CCC1	-1.7%
CCN(CC)C(=O)C1CC(c2ccc(OC)cc2)=NO1 (stereo unspecified)	7.5%
O=C1c2cccnc2C(=O)N1Cc1ccco1	-12.7%
CCOc1cccc2cc(-c3cn4cc(C)ccc4n3)c(=O)oc12	?
Cc1c(C)n(C)c2ccc(C(=O)NCc3cccs3)cc12	?
CC(C)(CNC(=O)c1cc2ccccc2o1)N1CCOCC1	1.6%
c1ccc2c(NC3CCNCC3)nc(-c3ccoc3)nc2c1	-16.1%
Nc1nnc2c(n1)CCCC2	-17.4%
CC(C)c1ccc(NC(=O)C(c2ccc3c(c2)OCO3)N2CCC3(CC2)OCCO3)cc1 (stereo unspecified)	12.6%

Next section
SMILES	HSD17B inhib
CCOC(=O)c1ccc(NC(=O)CSc2nnc(Cc3cccs3)n2C)cc1	3.0%
Cc1ccc(Cn2c(=O)cc(C(=O)O)c3ccccc32)cc1	?
COCC(=O)N(CCc1ccc(OC)c(OC)c1)Cc1nc2ccccc2c(=O)[nH]1	-2.0%
COCCN1Cc2cccc(C(=O)Nc3ccc4c(c3)OCCO4)c2C1=O	9.7%
CCOC(=O)CCN1C(=O)[C@H]2[C@H]3[C@H](O)[C@H](O)C/C(=N/NC(=O)OCc4ccc(OC)cc4)[C@@H]3CC[C@@H]2C1=O	-6.2%[11.4 µM]
CCOC(=O)c1sc(NC(=O)C2CC=CCC2C(=O)O)nc1C (stereo unspecified)	1.1%
COc1ccc(C)cc1NC(=O)C1CCCN(S(=O)(=O)c2c(C)noc2/C=C/N(C)C)C1 (stereo unspecified)	-0.3%
COc1ccc(Cl)c(NC(=O)Nc2c(C)n(-c3ccccc3)c(=O)n2C)c1	17.4%
CN(C)CCNc1nc2c(c(=O)[nH]c(=O)n2C)n1CC(O)COc1ccc(Cl)cc1 (stereo unspecified)	10.1%
COC(=O)c1c(-c2ccco2)csc1NC(=O)C1CC=CCC1C(=O)O (stereo unspecified)	-29.7%
CCOC(=O)C1CCN(S(=O)(=O)c2ccc(C(=O)OC)cc2)CC1	-5.6%
O=C1NC2=C(C(=O)CCC2)C(c2ccc3ncccc3c2)N1 (stereo unspecified)	1.1%
